Compound activity as filed in PubChem.
CDC25B-CDK2 inh – human CDC25B-CDK2/CyclinA binding inhibition; z-score (test concentration not listed); AID 1259370; HTRF CDC25B-CDK2/CyclinA binding, anti-His/anti-Flag; active compounds read high; hit rate 0.72% among 94,000; P30305+P24941;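 also: score is relative to mean and SD of negative controls; strong numbers were not always called active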
TAR Tat displ – HIV-1 TAR-Tat binding disruption. HIV-1 TAR RNA, Tat peptide displacement FRET; active compounds read high. z-score (no concentration beside the values). hit rate 0.6% among 100,000;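 also: score is relative to mean and SD of negative controls; some compounds called inactive have numbers as strong as hits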
Starred values were filed as active, the others as inactive; / = not tested or not shown.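 The calls were made as follows: active = z-score from 3 up in half or more of its runs; inactive = the rest.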

SMILES | CDC25B-CDK2 inh | TAR Tat displ
C=CCc1ccccc1OCc1nc2ccc(C)cc2[nH]1 | -1.7 | -0.08
Cc1cn2c(=O)c(S(=O)(=O)Nc3ccc(C)c(F)c3)c(C)nc2s1 | / | -0.43
N#Cc1c(NC(=O)c2ccc(S(=O)(=O)N3CCCC3)cc2)sc2c1CCC2 | -4.6 | 0.42
CCn1c2c(c(=O)[nH]c1=O)C(c1ccc(C(=O)O)cc1)C1=C(N2)c2ccccc2C1=O (configuration not stated) | 0.86 | 1.4
Cn1c(=O)c2c(nc3n2CCN3c2ccc(Cl)cc2)n(C)c1=O | / | 3.6
CN1CCN(S(=O)(=O)c2ccc(Cc3ccc(S(=O)(=O)N4CCN(C)CC4)cc3)cc2)CC1 | -1.4 | 0.94
CCOC(=O)N1CCC(Nc2c(N3CCCCC3C)c(=O)c2=O)CC1 (configuration not stated) | -1.1 | 0.32
CN1C(=O)C(O)(CC(=O)c2ccccc2O)c2cc(Br)ccc21 (configuration not stated) | -1.5 | -0.39
CN1C(=O)C(C)(C)c2cc(S(=O)(=O)NCc3ccc(Br)cc3)ccc21 | / | -0.39
O=C1c2ccc(O)cc2O[C@H](c2cc(O)c(O)c(O)c2)[C@H]1O | / | 9.3*
Cc1ccccc1Nc1c(-c2ccsc2)nc2cnccn12 | 0.57 | -0.75
CCC(CC)C(=O)Nc1ccc(OCc2cc(=O)n3ccsc3n2)cc1 | -1.9 | 1.2
CCCNC(=O)C(CC)n1nc(C)n2c(cc3sccc32)c1=O (configuration not stated) | -0.69 | 1
COC(=O)Cn1c(=O)oc2ccccc21 | -0.17 | -0.12
CCOC(=O)/C(C#N)=C/c1ccsc1 | -0.97 | /
Cc1ccccc1CSc1nc2n(n1)C(c1ccccc1F)C1=C(CCCC1=O)N2 (configuration not stated) | -0.33 | -0.83
CCN(C(=O)Cn1ncc2c([nH]c3ccccc32)c1=O)c1ccccc1 | / | 0.2
O=S(=O)(NCCc1csc2nc(-c3cccc(F)c3)nn12)c1ccc(F)cc1 | / | -0.15
COC(=O)c1cc(OC)c(OC)cc1NS(=O)(=O)c1ccsc1C(=O)OC | -0.84 | /
Cn1c(=O)c2c(ncn2CC(O)CNc2cccc(Cl)c2)n(C)c1=O (configuration not stated) | -1.3 | -1.1
CCCNC(=O)C(CC(C)C)N1Cc2ccccc2C1=O (configuration not stated) | / | 0.32
Cc1nn(C(C)C(=O)N2CC(C)CC(C)C2)c(=O)c2cc3occc3n12 (configuration not stated) | -0.67 | 1.3
COc1ccccc1N1C(=O)C2C(c3ccccc3)=NN(c3ccccc3)C2C1=O (configuration not stated) | -1.9 | 0.49
COC(=O)c1ccccc1NC(=S)N(N)CCO | -0.83 | /
CCOC(=O)c1cc2n(n1)CC(C)(C(=O)NC1CCC(C)CC1)N(CCc1cccs1)C2=O (configuration not stated) | / | -0.71
CCCN1CCN(c2ncc3c(n2)CCN(Cc2cccc(F)c2)C3)CC1 | / | -0.03
Nc1nc2sc3c(c2cc1C(=O)N1CCOCC1)CCCC3 | -1.8 | 1.6
CC(C)Cc1nnc2sc(NC(=O)C(C)Oc3ccccc3)nn12 (configuration not stated) | -1.2 | 0.93
CCC(=O)N1c2ccccc2CC1C(=O)N1CCc2ccccc2C1 (configuration not stated) | / | 1.2
CCOc1ccc(S(=O)(=O)Nc2ccc(-c3ccc(OC)nn3)cc2)cc1 | / | 1.6
O=C(CCCc1nnc2n3nc(-c4ccccc4)nc3c3ccccc3n12)NCc1ccc(F)cc1 | -1.3 | /
CSc1cccc(NC(=O)c2sc3nc4n(c(=O)c3c2C)CCC4)c1 | / | 1.6
Cc1ccc2c(c1)-c1onc(C(=O)N(CC(C)C)CC(C)C)c1CO2 | / | 1.7
Cc1cc(C)n(NC(=S)NC2CCCC2)c(=O)c1C#N | -1.1 | /
Cc1cccn2c(=O)c(C(=O)NCCCN3CCN(C)CC3)cnc12 | / | 1.7
COc1ccc(C(=O)c2cn(Cc3ccc(F)cc3)c3cc4c(cc3c2=O)OCO4)cc1 | -2.1 | 2.2
Cn1c(SCc2nc(-c3ccc(Cl)cc3)no2)nnc1-c1ccc2c(c1)OCCCO2 | / | 1.3
O=C(O)[C@H]1NCCC[C@H]1C(=O)O | -0.83 | /
Cc1ccc2c(=O)cc(C(=O)N(Cc3ccc(N(C)C)cc3)C3CCS(=O)(=O)C3)oc2c1C (configuration not stated) | 0.2 | 0.89
COc1ccc(NS(=O)(=O)c2cc(Br)cnc2N)cc1Cl | -2.3 | 2.5
Cc1ccc(C(=O)CC2(O)C(=O)Nc3ccc(Br)cc32)s1 (configuration not stated) | -0.24 | -2
O=C(c1cccc(Nc2nc(-c3ccccc3)c3cc(Cl)ccc3n2)c1)N1CCOCC1 | -2.9 | /
CC1CCCN(C(=O)CCS(=O)(=O)c2ccc3c(c2)CC(C)N3C(=O)C2CC2)C1 (configuration not stated) | / | -0.44
CC1CCCN(CCCNC(=O)C2=Cc3sc4c(c3CS2)CCCC4)C1 (configuration not stated) | / | 0.3
CCN1CCCC1CNC(=O)c1ccc2c(c1)sc1nc(-c3ccc(C)cc3)cn12 (configuration not stated) | / | 3.7
S=c1[nH]nc(-c2cccnc2)n1Cc1ccccc1 | -0.26 | /
CC(NC(=O)c1ccc2c(c1)nc1n2CCCCC1)c1ccc2c(c1)OCCO2 (configuration not stated) | / | 0.83
O=S(=O)(c1cnc[nH]1)N1CCN(c2ccccc2)CC1 | -0.79 | 1

Laid out differently: results already given.
The line under a structure holds: CDC25B-CDK2 inh | TAR Tat displ
- CN1C(=O)C(C)(C)c2cc(S(=O)(=O)NCc3ccc(Br)cc3)ccc21
 : / | -0.39
- Cc1ccccc1CSc1nc2n(n1)C(c1ccccc1F)C1=C(CCCC1=O)N2 (configuration not stated)
 : -0.33 | -0.83
- CCCNC(=O)C(CC)n1nc(C)n2c(cc3sccc32)c1=O (configuration not stated)
 : -0.69 | 1
- CCCN1CCN(c2ncc3c(n2)CCN(Cc2cccc(F)c2)C3)CC1
 : / | -0.03

Continued.
SMILES | CDC25B-CDK2 inh | TAR Tat displ
COc1ccc(OC)c(C2Oc3nc(SC)nnc3-c3ccccc3N2C(C)=O)c1 (configuration not stated) | -0.61 | 0.95
CCCCCCCCCCCCSc1ccc(S(=O)(=O)c2ccccc2)cc1 | -1.5 | /
CC(C)CCNC(=O)Nc1cn(C)c(=O)c2ccccc12 | / | 1.8
O=C1C2N=NN(Cc3cccc(Cl)c3)C2C(=O)N1c1ccccc1 (configuration not stated) | -0.79 | -0.57
O=S(OCC(F)(F)C(F)(F)C(F)(F)C(F)F)C12CC3CC(CC(C3)C1)C2 (configuration not stated) | -1.9 | /
Cc1nn(C)c(C)c1CNC(=O)CN1C(=O)CSc2cccn2-c2ccccc21 | / | 1.8
COc1ccc(-c2csc(-c3c(N)c(C(=O)c4ccccc4)n4ccccc34)n2)cc1 | 0.92 | 1.2
CC1CCN(S(=O)(=O)C2CCS(=O)(=O)C2)CC1 (configuration not stated) | -1.6 | -0.02
O=C(Nc1ccc(F)cc1F)C1CCCN(c2nnc(N3CCCC3=O)s2)C1 (configuration not stated) | -2 | 0.45
CCOc1ccc(/C(O)=C2\C(=O)C(=O)N(c3nnc(C)s3)C2c2ccccc2F)cc1 (configuration not stated) | 1.5 | 0.51
CNC(=O)c1ccccc1Sc1ccc([N+](=O)[O-])cc1C(=O)O | -1.8 | /
COc1cc2[nH]c(=O)n(Cc3ccco3)c(=O)c2cc1OC | -1.3 | 1.5
CCOCCOC(=O)C1=C(C)NC2=C(C(=O)C(C(=O)OC)C(C)C2)C1c1ccccc1F (configuration not stated) | 0.55 | 1
CCOC(=O)C1CCCN(C(=O)Cn2ncn3cccc3c2=O)C1 (configuration not stated) | -1.7 | 1.1
CC(=O)N1N=C(c2cccc(Br)c2)OC1c1ccc(Oc2ccc([N+](=O)[O-])cn2)cc1 (configuration not stated) | / | 1.7
Brc1cccc(C2Nc3cccc4cccc(c34)N2)c1 | -0.96 | 1.6
O=C1c2cccnc2C(=O)N1Cc1ccc(S(=O)(=O)N2CCCCC2)cc1 | / | 0.37
CCn1nc(C)c(CNS(=O)(=O)c2ccc(OC)cc2)c1C | / | -1.4
CN(C)c1ccc(C2C3=C(CC(C)(C)CC3=O)Nc3ccc4ccccc4c32)cc1 (configuration not stated) | -0.72 | 1
Cc1ccc(-c2cnc(C3CC3)o2)cc1S(=O)(=O)Nc1ccc(Br)cc1F | / | -0.24
CCCc1nnc(NC(=O)c2cc(=O)c3cc(C)c(C)cc3o2)s1 | -0.21 | 1.5
COc1ccccc1N1CCN(c2nn3nnnc3c3ccccc23)CC1 | -2.6 | -1
CCOC(=O)c1c(C)[nH]c(CN(C(=O)c2ccco2)C2CCCCC2)c1C | / | 0.71
CC1CCN(S(=O)(=O)N2CCCC(C(=O)NCCN3CCOCC3)C2)CC1 (configuration not stated) | / | 1.4

Filtered by structure, the entries above with bromine (7)
SMILES | CDC25B-CDK2 inh | TAR Tat displ
CN1C(=O)C(O)(CC(=O)c2ccccc2O)c2cc(Br)ccc21 (configuration not stated) | -1.5 | -0.39
CN1C(=O)C(C)(C)c2cc(S(=O)(=O)NCc3ccc(Br)cc3)ccc21 | / | -0.39
COc1ccc(NS(=O)(=O)c2cc(Br)cnc2N)cc1Cl | -2.3 | 2.5
Cc1ccc(C(=O)CC2(O)C(=O)Nc3ccc(Br)cc32)s1 (configuration not stated) | -0.24 | -2
CC(=O)N1N=C(c2cccc(Br)c2)OC1c1ccc(Oc2ccc([N+](=O)[O-])cn2)cc1 (configuration not stated) | / | 1.7
Brc1cccc(C2Nc3cccc4cccc(c34)N2)c1 | -0.96 | 1.6
Cc1ccc(-c2cnc(C3CC3)o2)cc1S(=O)(=O)Nc1ccc(Br)cc1F | / | -0.24

(more compounds)
SMILES | CDC25B-CDK2 inh | TAR Tat displ
O=S(=O)(NCc1nc(-c2ccccc2)no1)c1ccc(Br)cc1 | 1.2 | 1
C=CCNc1ncnc2c1cnn2-c1ccc(Cl)cc1 | -3.2 | /
CC1CC(C)(C)NC(C)c2ccccc21 (configuration not stated) | 1.1 | /
CCOC(=O)C1=C(CC)NC2=C(C(=O)CC(C)(C)C2)C1c1ccccc1F (configuration not stated) | -0.78 | 1.6
CC(C)CCNc1nc(N)c([N+](=O)[O-])c(Nc2ccccc2)n1 | / | 1.2
CSc1nc2c([nH]c3ccccc32)c(=O)n1-c1ccccc1 | / | 1.7
CS(=O)(=O)c1csc(C(=O)NCc2cccnc2)c1Cl | -1.7 | /
C=CCn1c(NCCCOC)nc2c1c(=O)n(C)c(=O)n2C | -0.84 | -0.25
O=C(NC1CCCCC1)c1cc2c(s1)-c1ccccc1S(=O)(=O)C2 | -1.1 | -0.45
Cc1cccc(N(C)c2nc3ccccc3n3cnnc23)c1 | 0.14 | 0.19
CCS(=O)(=O)N1CCC(c2nc3c(nnn3Cc3ccccc3F)c(=O)[nH]2)CC1 | -1.1 | 1.5
COc1ccc(S(=O)(=O)NCc2c(C)nn(C)c2C)cc1Cl | / | 2.4
O=C(NCC1CC1)Nc1sccc1-n1cccc1 | -0.9 | /
O=C(NCc1ccco1)c1ccc2c(c1)N(Cc1ccccc1)CCS2 | -0.62 | /
O=C1CC(c2cccc(OCc3ccccc3)c2)c2cnn(-c3nc4ccccc4s3)c2N1 (configuration not stated) | / | 2
CCOc1ccc(-c2nc3ncccn3c2NCc2ccc(C)cc2)cc1OC | / | -0.09
CCC1CN(C(=O)N2CCC(C(=O)N3CCCC3)CC2)c2ccccc2O1 (configuration not stated) | / | 2.8
O=C(NCc1ccco1)c1cnc(N2CCCC2)nc1 | -1.5 | 1.6
O=C1CC(c2ccccc2)CC2=C1CN(C1CCCCC1)CN2 (configuration not stated) | -2.3 | -0.82
COc1ccc(NC(=O)CCS(=O)(=O)c2cc3c4c(c2)CCN4C(=O)CC3)cc1OC | / | 0.94
NC(=O)Cn1c(=O)n(-c2ccc(F)c(Cl)c2)c(=O)c2sc3ccccc3c21 | -0.61 | 2.1
CC(=O)N1CCc2cc(S(=O)(=O)CCC(=O)Nc3ccc(F)cc3F)ccc21 | / | -0.4
COC(=O)CSc1ccc2nnc(-c3ccc(OC)cc3)n2n1 | -2.5 | /
OC(CN1CCN(c2ccccc2F)CC1)c1c[nH]c2ccc(F)cc12 (configuration not stated) | -0.73 | 0.21

Copied from the list:
Reading for COC(=O)Cn1c(=O)oc2ccccc21 under TAR Tat displ: -0.12
Reading for Cc1ccc2c(c1)-c1onc(C(=O)N(CC(C)C)CC(C)C)c1CO2 under TAR Tat displ: 1.7
Reading for COC(=O)c1cc(OC)c(OC)cc1NS(=O)(=O)c1ccsc1C(=O)OC under CDC25B-CDK2 inh: -0.84

(listing goes on)
SMILES | CDC25B-CDK2 inh | TAR Tat displ
CN1C2=CC=CC=CC2=[N+](C)C12C=CC(=[N+]([O-])[O-])C=C2[N+](=O)[O-] (configuration not stated) | -0.5 | /
CCCOCc1cc(CN2CCN(C)CC2)c(O)c2ncccc12 | 3.7 | 1.1
CCCS(=O)(=O)c1nc(S(=O)(=O)c2ccc(C)cc2)c(NCC2CCCO2)s1 (configuration not stated) | -0.92 | -1.2
COc1cccc(-n2nnc(-c3nc(-c4ccc5c(c4)OCO5)no3)c2N)c1 | / | -0.68
COc1ccc(S(=O)(=O)N2CC(C)CC(C)C2)cc1OC (configuration not stated) | -1.4 | 1.4
CSc1nc2sc3c(c2c2nnc(C)n12)CCC(C)C3 (configuration not stated) | -2.7 | /
Cc1nc(N(C)C)ncc1C(=O)NCCN1CCOCC1 | / | 2.9
